VDR inhibitor: vitamin D3 receptor (human) inhibition | actives 0.93% (n = 400,000) | P11473 | Potency, µM, inactives show max response, negative = inhibition, hits mostly inhibitors | VDR-SRC2-3 peptide fluorescence polarization, 2 h; active = well fitted inhibition curve with a large enough effect; inconclusive = small, poorly fitted or top-dose-only effect, or another doubt; inactive = no such curve, though single readings can be large or run the other way; also: series mostly up to about 120 µM
Target sequence (P11473 whole entry, looked up): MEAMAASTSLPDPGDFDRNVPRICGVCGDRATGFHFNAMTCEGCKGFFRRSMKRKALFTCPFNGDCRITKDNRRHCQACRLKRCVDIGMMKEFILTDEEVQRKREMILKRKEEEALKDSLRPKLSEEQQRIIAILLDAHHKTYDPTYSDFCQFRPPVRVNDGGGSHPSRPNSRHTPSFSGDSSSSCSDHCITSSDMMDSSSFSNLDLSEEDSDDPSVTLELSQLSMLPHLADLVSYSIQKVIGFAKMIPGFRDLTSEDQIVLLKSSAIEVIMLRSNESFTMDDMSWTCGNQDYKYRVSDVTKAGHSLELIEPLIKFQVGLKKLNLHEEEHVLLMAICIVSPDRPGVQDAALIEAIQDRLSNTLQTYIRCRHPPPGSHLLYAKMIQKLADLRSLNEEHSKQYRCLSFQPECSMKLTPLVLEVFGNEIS
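Inhibition of the VDR/SRC2-3 peptide interaction is quantified by fluorescence polarization. Compounds (23 nl, pintool) incubate with the reagents for 2 hours at ambient room temperature.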
Starred values were filed as active, the others as inactive; ? = inconclusive; & = joins results of further samples; [ ] = another dose, or the depositor's remark. % is scaled to controls: 0 for no effect and ±100 for the full control effect; potency is read from the fitted curve at half-maximal effect. An excerpt; the hit share may differ from the screen's.

CNC(=O)c1cc(S(=O)(=O)Nc2ccc3c(c2)OCCO3)ccc1C
- VDR inhibitor: 9.8%
Cc1ccc(C(=O)Nc2ccc(O)c(C(=O)O)c2)o1
- VDR inhibitor: -15.3%
O=C1C(Cl)=C(N2CCOCC2)C(=O)N1c1ccccc1
- VDR inhibitor: ?
CS(=O)(=O)NC1CCN(Cc2ccccc2)CC1
- VDR inhibitor: -9.6%
CN(C)S(=O)(=O)c1cccc(NC(=O)CCSc2ccc(Cl)cc2)c1
- VDR inhibitor: 3.1%
Cc1occc1C(=O)NNC(=S)Nc1ccccc1
- VDR inhibitor: 13.5%
Cc1cc(C)n(-c2nc(NCCC(C)C)c3c4c(sc3n2)COC(C)(C)C4)n1
- VDR inhibitor: -12.5%
O=C(CSc1ccc2c(c1)OCCO2)NCC1CCCO1 (centres undefined)
- VDR inhibitor: -12.7%
CCc1ccccc1OCC(=O)NC1CCCC1
- VDR inhibitor: -7.5%
NS(=O)(=O)c1ccc(NS(=O)(=O)c2ccc(Br)cc2)cc1
- VDR inhibitor: -7.8%
O=C1c2cccc3cccc(c23)C(=O)N1c1ccc(O)cc1
- VDR inhibitor: -7.3%
O=C(NCc1ccccc1)C1=C[C@H](c2coc3ccccc3c2=O)C[C@H](OCCCCO)O1
- VDR inhibitor: -12.5%
O=C1/C(=C\c2ccc3ccccc3c2)CCCc2ccccc21
- VDR inhibitor: -7.0%
CCN(CC)S(=O)(=O)c1ccc(C)c(NC(=O)COC(=O)C=C(C)C)c1
- VDR inhibitor: -29.1%
Cc1ccc(-n2c(=O)[nH]c3c(oc4ccccc43)c2=O)cc1
- VDR inhibitor: -24.4%

COc1ccc(CCC(=O)NNC(=O)Nc2ccc(C(C)C)cc2)cc1
- VDR inhibitor: -17.1%
Cc1cc2oc(=O)cc(-c3ccccc3)c2c(C)c1-c1ccc(F)c(Cl)c1
- VDR inhibitor: -9.0%&-13.5%
CCC1CCCCN1Cc1nc2c(c(=O)n(C)c(=O)n2C)n1Cc1cccc2ccccc12 (centres undefined)
- VDR inhibitor: -12.6%
COc1cc(O)c(C(CC(=O)N2CCCCC2)c2cc(OC)c(OC)c(OC)c2)c(OC)c1 (centres undefined)
- VDR inhibitor: -13.1%&1.4%
CCN(C(=O)c1cccn(Cc2ccccc2C)c1=O)c1ccccc1
- VDR inhibitor: -1.5%
O=C(Nc1ccccn1)c1cc2cc([N+](=O)[O-])ccc2s1
- VDR inhibitor: -22.5%
NCCNc1ccc(C(=O)N2c3ccccc3Sc3ccccc32)cc1[N+](=O)[O-]
- VDR inhibitor: ?
COC(=O)CCS(=O)(=O)c1ccc(NC(C)=O)cc1
- VDR inhibitor: 10.0%
O=C(NC1CCCC1)c1cc(-c2ccc(F)cc2)on1
- VDR inhibitor: 3.6%
COc1ccc(/C=C/C(=O)OCC(=O)Nc2cccc(Oc3ccccc3)c2)c(OC)c1
- VDR inhibitor: -20.8%
O=C(O)CCN1C(=O)/C(=C2\C(=O)N(Cc3ccc(F)cc3)c3ccccc32)SC1=S
- VDR inhibitor: ?
O=C(CSc1nnc(COc2ccccc2)o1)N1CCOCC1
- VDR inhibitor: -19.5%
Nc1cc(S(=O)(=O)Nc2cc(Cl)ccc2Cl)ccc1N1CCCC1
- VDR inhibitor: -5.6%
CCC(=O)N1CCc2cc(-c3csc(NC(=O)c4ccco4)n3)ccc21
- VDR inhibitor: 15.9%
CCCc1[nH]nc2c1C(c1ccc(OC)c(Cn3nc(C)c(Br)c3C)c1)C(C#N)=C(N)O2 (centres undefined)
- VDR inhibitor: 1.5%

CN1c2ccc(Cl)cc2-c2nc(SCC(=O)NCc3ccccc3)ncc2S1(=O)=O
- VDR inhibitor: 6.2%
N#CC1=C(N)NC(SCC(=O)c2ccccc2)=C(C#N)C12CCCC2
- VDR inhibitor: 0.4%
O=C(c1ccncc1)N1CCC2(CC1)CCN(c1ccccn1)CC2
- VDR inhibitor: 5.4%
O=C(/C=C/c1ccc2c(c1)OCO2)Nc1cccnc1
- VDR inhibitor: -8.5%
Cc1cnc(C(=O)N2CCN(S(=O)(=O)c3cc(C(F)(F)F)cc(C(F)(F)F)c3)CC2)cn1
- VDR inhibitor: 1.1%
CCOC(=O)c1scc(-c2ccc(C)cc2)c1S(=O)(=O)N1CCN(c2ccccc2F)CC1
- VDR inhibitor: -1.8%
O=C(N/N=C/c1ccc(C(=O)O)cc1)C(=O)N1CCCCCC1
- VDR inhibitor: -11.6%
Cn1c2ccccc2c(=O)c2cc(NCCCN3CCOCC3)ccc21
- VDR inhibitor: -18.1%
C=CCNc1nc(-c2c(C)nc3ncccn23)cs1
- VDR inhibitor: -11.3%
CNS(=O)(=O)c1ccc(C)cc1
- VDR inhibitor: 9.2%
COc1ccc2cc(CO)c3cc(OC)c(OC)cc3c2c1
- VDR inhibitor: -4.3%
COc1ccc2[nH]c(=O)c(C(c3nnnn3C3CCCCC3)N3CCN(C)CC3)cc2c1 (centres undefined)
- VDR inhibitor: -2.1%
O=C(COC(=O)c1cccc(Br)c1)NCCc1ccccc1
- VDR inhibitor: 14.4%
COCCC(=O)N1CCC(Oc2ccc(C(=O)NC3CCOC(C)(C)C3)cc2)CC1 (centres undefined)
- VDR inhibitor: 3.6%
COc1cccc(C=Nc2cc(C(C)C)c(O)cc2C)c1O
- VDR inhibitor: 50.1µM*

As entered above.
`O=C(COC(=O)c1cccc(Br)c1)NCCc1ccccc1` | VDR inhibitor = 14.4%
`CCOC(=O)c1scc(-c2ccc(C)cc2)c1S(=O)(=O)N1CCN(c2ccccc2F)CC1` | VDR inhibitor = -1.8%
`COc1ccc2cc(CO)c3cc(OC)c(OC)cc3c2c1` | VDR inhibitor = -4.3%
`O=C(/C=C/c1ccc2c(c1)OCO2)Nc1cccnc1` | VDR inhibitor = -8.5%
`O=C(N/N=C/c1ccc(C(=O)O)cc1)C(=O)N1CCCCCC1` | VDR inhibitor = -11.6%
`C=CCNc1nc(-c2c(C)nc3ncccn23)cs1` | VDR inhibitor = -11.3%

Later entries.
COc1ccc([N+](=O)[O-])cc1NC1CCCCC1
- VDR inhibitor: -22.6%
OCC[C@H]1C[C@@H](O)[C@H](O)[C@]2(CCc3ccccc3O2)O1
- VDR inhibitor: -11.7%
CCn1cc2nc(SCc3ccc(C)cc3)n(CCc3ccccc3)c(=O)c2n1
- VDR inhibitor: 3.6%
CCN(CC)S(=O)(=O)c1ccc(N2CCOCC2)c(NC(=O)c2sccc2C)c1
- VDR inhibitor: -15.2%
CC1=C(C(=O)OCc2ccccc2)C(c2ccc(C(C)(C)C)cc2)NC(=O)N1CCCCCC(=O)O (centres undefined)
- VDR inhibitor: -21.4%
O=C(Nc1ccc(N2CCCC2)cc1)c1cccc(Cl)c1
- VDR inhibitor: -10.7%
CCCCCc1cc(=O)oc2c(C(CCN3CCCC(C)C3)c3cc(OC)c(OC)c(OC)c3)c(OC)cc(OC)c12 (centres undefined)
- VDR inhibitor: -7.1%
Cc1ccc(C(=O)Nc2ccc(Br)cc2)cc1S(=O)(=O)Nc1ccccn1
- VDR inhibitor: -22.4%
CCOc1ccc(C(NC(=O)CC)c2c(O)ccc3ccccc23)cc1 (centres undefined)
- VDR inhibitor: -4.4%
NS(=O)(=O)c1ccc(CCNC(=O)C2Cc3ccccc3CN2C(=O)c2ccco2)cc1 (centres undefined)
- VDR inhibitor: 24.6%
Cc1ccc(-n2c(CSc3nc(C)cc(C)n3)n[nH]c2=S)cc1
- VDR inhibitor: -11.9%
Cc1ccccc1CSc1nc2c(sc3ccccc32)c(=O)n1CCCOC(C)C
- VDR inhibitor: 3.0%
C1=C(c2ccc(-c3ccccc3)cc2)Nc2ncnn2C1c1ccco1 (centres undefined)
- VDR inhibitor: 1.4%
CCOC(=O)N1CCC(NC(=O)CCc2c(C)nc3nc(C)nn3c2C)CC1
- VDR inhibitor: 3.0%
O=C(COC(=O)c1ccc(F)cc1)NCC1CCCCC1
- VDR inhibitor: 13.9%

O=C(NCCN1C(=O)S/C(=C\c2cccnc2)C1=O)C1CC(=O)N(Cc2ccco2)C1 (centres undefined)
- VDR inhibitor: -25.2%
COc1ccc(CCNC(=O)Cn2nnc3ccccc3c2=O)cc1
- VDR inhibitor: -11.1%
Cc1cccc(C(=O)NNC(=O)CCn2nnc3ccccc32)c1
- VDR inhibitor: 10.2%
COc1ccc(-c2nc(CS(=O)CC(=O)NC3CCCCC3)c(C)o2)cc1 (centres undefined)
- VDR inhibitor: -1.5%
Cc1ccc(OCc2cc(C(=O)NC(C)Cc3cccc(C)n3)no2)cn1 (centres undefined)
- VDR inhibitor: -11.3%
Cc1noc(C)c1COC(=O)c1ccccc1NC(=O)Cc1ccccc1
- VDR inhibitor: 20.0%
CCOCC(=O)Nc1ccc(Br)c(C)c1
- VDR inhibitor: 12.9%
NS(=O)(=O)c1cc(C(=O)N2CCNC(=O)C2)ccc1Cl
- VDR inhibitor: -3.1%
COCCNC(=O)Cc1ccc(F)cc1
- VDR inhibitor: -23.7%
CCOC(=O)N1CCN(c2ccc(C(C)=O)cc2F)CC1C (centres undefined)
- VDR inhibitor: 15.6%
O=C(c1cn(Cc2ccccc2)nc1-c1cccnc1)N1CCN(Cc2ccccc2)CC1
- VDR inhibitor: 8.5%
CCCOc1ccc(-c2cc(C(F)(F)F)c(C#N)c(SCCC(=O)O)n2)cc1
- VDR inhibitor: -4.1%
COc1cccc(-n2cnc(=O)c3cccnc32)c1
- VDR inhibitor: 30.9%[activator]
COc1ccc(NC(=O)c2cccc(S(=O)(=O)N3CCN(c4ccccc4)CC3)c2)c(OC)c1
- VDR inhibitor: -5.5%
CN(C(=O)COC(=O)c1ccccc1OCc1ccc(Cl)cc1)c1c(N)n(Cc2ccccc2)c(=O)[nH]c1=O
- VDR inhibitor: 25.0%

Molecules shown so far with bromine (five):
NS(=O)(=O)c1ccc(NS(=O)(=O)c2ccc(Br)cc2)cc1
- VDR inhibitor: -7.8%
CCCc1[nH]nc2c1C(c1ccc(OC)c(Cn3nc(C)c(Br)c3C)c1)C(C#N)=C(N)O2 (centres undefined)
- VDR inhibitor: 1.5%
O=C(COC(=O)c1cccc(Br)c1)NCCc1ccccc1
- VDR inhibitor: 14.4%
Cc1ccc(C(=O)Nc2ccc(Br)cc2)cc1S(=O)(=O)Nc1ccccn1
- VDR inhibitor: -22.4%
CCOCC(=O)Nc1ccc(Br)c(C)c1
- VDR inhibitor: 12.9%

The list goes on:
CCCn1ccc2c(OCC(=O)Nc3ccc(F)cc3F)cccc2c1=O
- VDR inhibitor: 17.6%
COc1ccc(CNC(=O)C/C(C)=N/NC(=O)c2ccccc2OC)cc1
- VDR inhibitor: -7.9%
O=C(CSCC(=O)NCc1ccco1)NCc1ccco1
- VDR inhibitor: -4.9%
FC(F)(F)c1nnc(-c2ccccc2)nc1Sc1ccc(Cl)cc1
- VDR inhibitor: 70.8µM*
CCN(CC)CCCNC(=O)c1ccc(-c2nc(CN3CCc4ccccc43)c(C)o2)cc1
- VDR inhibitor: -3.7%
Cn1cnc([N+](=O)[O-])c1Sc1nc(N)nc2c1ncn2C1CC(O)C(CO)O1 (centres undefined)
- VDR inhibitor: 9.6%
CC(=O)c1cccc(NC(=O)Cn2cnc(S(=O)(=O)N3CCc4ccccc43)c2)c1
- VDR inhibitor: 0.9%
Cc1cccc(NC2SC(=O)NC2=O)c1 (centres undefined)
- VDR inhibitor: -15.2%
Cc1ccc(Cn2c(C(CO)Nc3nc(-c4ccc(Cl)c([N+](=O)[O-])c4)cs3)nc3ccccc32)cc1 (centres undefined)
- VDR inhibitor: 9.5%
CCCC(=O)N1CCN(c2nc3ccc(Br)cc3s2)CC1
- VDR inhibitor: 7.6%
Cc1ccc(CSc2nc(-c3ccccc3C)nc3c2Cc2c(CO)cnc(C)c2O3)cc1
- VDR inhibitor: 15.7%
CN(CCc1cn[nH]c1)C(=O)CC1C(=O)NCCN1Cc1ccccc1C(F)(F)F (centres undefined)
- VDR inhibitor: 21.4%
CN(C)S(=O)(=O)c1ccc(C(=O)Oc2coc(CSc3ncccn3)cc2=O)cc1
- VDR inhibitor: -9.1%
COc1ccc(CN2CC(=O)N(c3cccc(Cl)c3)C2=S)cc1OC
- VDR inhibitor: 12.7%
CC1(C)CC(=O)C(CC(=O)Nc2ccc(S(N)(=O)=O)cc2)=C(O)C1
- VDR inhibitor: 4.3%

CC(=O)Nc1cc(C(=O)NCc2ccco2)ccc1Sc1ccc(Cl)cc1
- VDR inhibitor: -6.4%
CCc1cccc(C)c1Nc1nn2c(=O)c3ccccc3nc2s1
- VDR inhibitor: -8.7%
NCCCNc1ccc([N+](=O)[O-])cc1C(F)(F)F
- VDR inhibitor: -13.7%
COCCSc1ccccc1C(=O)Nc1ccccc1C#N
- VDR inhibitor: -4.7%
Clc1ccccc1OCCN1CCC(Cc2ccccc2)CC1
- VDR inhibitor: -5.1%
COc1ccc(N/N=C(C)/C(=N/O)C(=O)Nc2ccccc2)cc1
- VDR inhibitor: 8.3%
CC(C)=CCc1c2c(c(O)c3c(=O)c4c(oc13)-c1cc(O)c(O)cc1OC4C=C(C)C)C=CC(C)(C)O2 (centres undefined)
- VDR inhibitor: 2.1%
COc1ccc(Br)cc1/C=c1\sc2nc(-c3ccco3)nn2c1=O
- VDR inhibitor: -16.4%
COc1cccc2c1C(=O)c1ccc3ccccc3c1C2=O
- VDR inhibitor: -2.7%
CCOC(=O)c1cc(=O)c2ccc(OCC(=O)Nc3ccccc3)cc2o1
- VDR inhibitor: -6.0%
Clc1ccccc1-c1nnn(Cc2ccc(-c3nn[nH]n3)cc2)n1
- VDR inhibitor: -22.3%
COC(=O)c1[nH]c2cc(C)ccc2c1NC(=O)CN1CCOCC1
- VDR inhibitor: -11.5%
Cc1cc(C)n2c(SCc3cccs3)nnc2n1
- VDR inhibitor: 10.3%
O=C(NCCCn1ccnc1)C(=O)c1cn(CC(=O)N2CCCCCC2)c2ccccc12
- VDR inhibitor: -2.0%

3 entries from above, sorted by SMILES length, ascending:
Clc1ccccc1OCCN1CCC(Cc2ccccc2)CC1
- VDR inhibitor: -5.1%
COC(=O)c1[nH]c2cc(C)ccc2c1NC(=O)CN1CCOCC1
- VDR inhibitor: -11.5%
COc1ccc(N/N=C(C)/C(=N/O)C(=O)Nc2ccccc2)cc1
- VDR inhibitor: 8.3%

Screening results (PubChem BioAssay)
